Source: PubChem
T cruzi repl: blocks replication of Trypanosoma cruzi; inhibition, % (concentration not given with the values); T. cruzi beta-gal in NIH3T3, luminescence, 90 h; 1.4% of 300,000 active;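 active = mean inhibition across valid replicates above about 55%, limit read from the data; inconclusive = mean below that limit but half or more replicates reach it; inactive = mean below it, under half of replicates reach it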;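 also: signal also drops with host cell toxicity which is not excluded here; 0% = plate median of DMSO wells and 100% = zero luminescence signal; higher percent means less beta-gal luminescence so fewer parasites; stock transfer was 50 nL into about 50 µL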
AF4-AF9 inh: inhibitors of human MLL-AF4/AF9 interaction | AlphaScreen, biotin-AF4 peptide binding to FLAG-AF9 | inhibition, % at 10 µM | 0.47% of 350,000 active;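 active = every replicate reaching a set inhibition limit, whatever the replicate mean, cut at about 25% in these data; inconclusive = mean inhibition reaches that limit but some replicates miss it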;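 also: 0% = plate neutral control median and 100% = total signal loss; the record names both 10 and 1 µM as test concentration; the first replicate is given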
Target sequence (P42568 whole entry, looked up): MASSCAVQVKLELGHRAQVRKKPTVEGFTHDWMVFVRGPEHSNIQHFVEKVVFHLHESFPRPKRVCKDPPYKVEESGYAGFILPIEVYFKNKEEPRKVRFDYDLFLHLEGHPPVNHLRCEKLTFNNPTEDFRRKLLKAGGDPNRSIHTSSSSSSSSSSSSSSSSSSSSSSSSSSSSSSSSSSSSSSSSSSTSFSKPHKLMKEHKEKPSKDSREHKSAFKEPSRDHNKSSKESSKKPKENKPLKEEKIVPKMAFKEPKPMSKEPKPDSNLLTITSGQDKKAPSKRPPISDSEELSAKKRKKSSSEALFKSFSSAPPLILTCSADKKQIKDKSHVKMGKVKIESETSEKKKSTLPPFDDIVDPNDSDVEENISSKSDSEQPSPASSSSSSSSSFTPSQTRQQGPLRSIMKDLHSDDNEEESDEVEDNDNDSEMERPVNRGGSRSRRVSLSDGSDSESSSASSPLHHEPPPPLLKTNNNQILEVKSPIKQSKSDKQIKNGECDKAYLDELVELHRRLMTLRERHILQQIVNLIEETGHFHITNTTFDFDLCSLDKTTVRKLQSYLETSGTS
Calb FLC: C. albicans growth modulation with fluconazole | 0.57% of 300,000 active | growth inhibition, % (test concentration not listed) | C. albicans CaCi-2 (fluconazole-resistant clinical isolate) + fluconazole, Alamar Blue growth, 48 h;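 active = most replicates above 75%; inconclusive = exactly half above 75%; inactive = most below 75%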;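 also: all wells also contain fluconazole at 8 µg/ml as a sub-toxic cotreatment; 0% = median of DMSO wells and 100% = median of geldanamycin control wells; wells of about 8 µL received 7.5 nL stock; the first replicate is given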
Beta apoptosis: blocks beta cell apoptosis. 0.8% of 300,000 active. protection from apoptosis, % (no concentration beside the values). INS-1E cytokine-induced death, ATP luminescence, 48 h; percent of positive-control rescue, neutral wells zero;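 active = all replicates at 75% or more, or half of them and the mean; inconclusive = half reach 75% but not the mean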;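 also: 0% = cytokine-treated negative control wells and 100% = positive control rescue; higher means more ATP so stronger rescue from cytokine killing; wells of about 40 µL received 100 nL stock; the first replicate is given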
RanGTP-Impb inh: disruptors of Ran-importin-beta complex formation – biochemical, FRET, CFP-Ran, YFP-importin-beta, homogeneous, primary screen. 1.1% of 300,000 active. AID 2216. cell-free CFP-Ran/YFP-importin-beta FRET ratio. inhibition, % (concentration not given with the values);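 active = most replicates above 15%; inconclusive = exactly half above 15%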;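 also: 0% = DMSO wells and 100% = Ran loaded with GDP instead of GTP; wells of about 40 µL received 100 nL stock; the first replicate is given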
A1 inh: inhibitors of the anti-apoptotic protein A1, read as caspase activation. 0.066% of 330,000 active. caspase activation, % (no concentration beside the values). AID 2462. MEF A1-2A-BIM cells, Caspase-Glo 3/7 luminescence, 3 h; percent of clofoctol response, vehicle zero;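 active = over half of replicate activation scores above 10%, or exactly half above 10 with the replicate mean above 10; inconclusive = replicate mean below 10 yet half the replicates above 10; inactive = over half of replicates below 10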;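 also: wells of about 30 µL received 50 nL stock; many hits fall short of the cut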
Vif A3G: inhibitors of Vif binding to APOBEC3G peptide, primary screen, biochemical, TR-FRET, GST-Vif 1-94, biotin-A3G peptide, dose response retest (AID 1117319). one-dose inhibition, %; IC50 in µM for titrated hits. 0.57% of 260,000 active. TR-FRET GST-Vif / biotin-A3G peptide binding; higher % means a stronger effect; test concentration not given here; strong numbers were not always called active;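 active = above the screen mean plus three standard deviations and confirmed in dose response; inconclusive = results disagree or hit not tested in dose response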;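 also: Vif residues 1-94 fused to GST binding biotinylated APOBEC3G peptide 110-148; 0% = full assay without inhibitor and 100% = GST in place of GST-Vif; retest series ran down from 100 µM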
Ecoli rRNA inh: inhibits bacterial ribosomal RNA function over humanized ribosomes; E. coli WT GFP vs humanized-ribosome RFP mutants, fluorescence, 24 h; stronger effect = lower value; DMSO median 0, no signal -100; GFP signal change (wild-type ribosome), % (no concentration beside the values); 1.6% of 350,000 active; AID 720706;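 active = significant combined selectivity score with lowered wild-type GFP, culture density cut under 30%, mutant RFP and density less affected; inactive = any of these conditions unmet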; also: one replicate is shown; some compounds called inactive have numbers as strong as hits
Ecoli rRNA inh OD600: second read-out of Ecoli rRNA inh, no call of its own (marks repeat the call); OD600 change, %; measured here: OD600 growth;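 optical density of the mix in the first replicate; 0 = DMSO median and -100 = no signal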
Ecoli rRNA inh RFP: recorded beside Ecoli rRNA inh, whose call it bears; RFP signal change, %; measured here: RFP humanized mutant strains;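 first replicate; 0 = DMSO median and -100 = no signal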
Starred values were filed as active, the others as inactive; ? = inconclusive; . = no result given.

Preview (8 entries):
SMILES	T cruzi repl	AF4-AF9 inh	Calb FLC	Beta apoptosis	RanGTP-Impb inh	A1 inh	Vif A3G	Ecoli rRNA inh	Ecoli rRNA inh OD600	Ecoli rRNA inh RFP
O=C1CNC(=S)N1Cc1ccc(Cl)cc1	1	0.5	-26	.	-0.5	0.4	2%	-3	-1	4.7
COCCCn1c(Cc2ccccc2)nnc1SCC(=O)N1CCCCC1	-17	.	?	1	1.6	1.2	30%	.	.	.
CC1(C)Oc2ccc(C(=O)N3CCOCC3)cc2N(CC(=O)Nc2ccccc2)C1=O	-2	.	3	1	0.1	-0.1	-5%	.	.	.
ClC1(Cl)CC1Cn1c(C2CC2)nc2ccccc21 (stereo unspecified)	2	-1.8	5	-6	0.3	1.5	2%	0	1	-1.6
Cc1ccc(NC(=O)CSc2nnc(CNC(=O)c3ccccc3F)o2)cc1	-19	-9.1	-4	-8	-1.3	1.7	9%	1	-5	1.3
Cc1ccccc1Nc1nc2ccccc2n1C(C)C	2	-3.3	-2	-13	-1.5	-0.9	7%	7	12	1.8
O=C(O)c1ccccc1N1C(=O)C2C3CCC(C3)C2C1=O (stereo unspecified)	-10	-0.9	0	-1	4.9	-0.3	4%	23	10	1.6
CCOc1ccccc1NC(=O)CSc1nncc2ccccc12	-1	-3.7	9	0	5.4	0.1	.	0	-18	5.9

Main list, from the first entry:
SMILES	T cruzi repl	AF4-AF9 inh	Calb FLC	Beta apoptosis	RanGTP-Impb inh	A1 inh	Vif A3G	Ecoli rRNA inh	Ecoli rRNA inh OD600	Ecoli rRNA inh RFP
O=C1CNC(=S)N1Cc1ccc(Cl)cc1	1	0.5	-26	.	-0.5	0.4	2%	-3	-1	4.7
COCCCn1c(Cc2ccccc2)nnc1SCC(=O)N1CCCCC1	-17	.	?	1	1.6	1.2	30%	.	.	.
CC1(C)Oc2ccc(C(=O)N3CCOCC3)cc2N(CC(=O)Nc2ccccc2)C1=O	-2	.	3	1	0.1	-0.1	-5%	.	.	.
ClC1(Cl)CC1Cn1c(C2CC2)nc2ccccc21 (stereo unspecified)	2	-1.8	5	-6	0.3	1.5	2%	0	1	-1.6
Cc1ccc(NC(=O)CSc2nnc(CNC(=O)c3ccccc3F)o2)cc1	-19	-9.1	-4	-8	-1.3	1.7	9%	1	-5	1.3
Cc1ccccc1Nc1nc2ccccc2n1C(C)C	2	-3.3	-2	-13	-1.5	-0.9	7%	7	12	1.8
O=C(O)c1ccccc1N1C(=O)C2C3CCC(C3)C2C1=O (stereo unspecified)	-10	-0.9	0	-1	4.9	-0.3	4%	23	10	1.6
CCOc1ccccc1NC(=O)CSc1nncc2ccccc12	-1	-3.7	9	0	5.4	0.1	.	0	-18	5.9
Nc1ccccc1C(=O)NCc1ccco1	-4	-9.6	-1	-16	-2.5	0.1	-7%	-5	-7	4.7
CC(C)(C)SCCNC(=O)CSCc1ccc([N+](=O)[O-])cc1	-1	.	0	-7	2.3	1.1	1%	.	.	.
COc1cccc(N2CCN(C(=O)CN(C)S(=O)(=O)c3ccc4c(c3)c(=O)n(C)c(=O)n4C)CC2)c1	14	1.3	25	-8	1.5	2.1	7%	-10	-8	4.4
CCN1C(=NCc2cc(OC)c(OC)c(OC)c2)N[C@@H](c2cccc(C(F)(F)F)c2)C(C(=O)OC)=C1C	.	1.6	.	4	.	-0.5	.	7	8	-9.5
O=C1CCCC2=C1C(c1ccc(O)c(O)c1)Nc1ccc3ccccc3c12 (stereo unspecified)	16	2.7	3	3	3.4	0.4	.	-27	7	-5.6
CCn1c(COc2ccc(=O)n(-c3ccccc3)n2)nnc1SCc1ccccc1C	11	.	9	-2	-1.9	0.6	0%	.	.	.
O=C(Nc1cccc(Cl)c1)Nc1ccnc(-c2cccnc2)n1	31	-0.6	7	-6	-2.0	-0.4	-9%	-9	-9	0.8
COc1ccccc1C(CNC(=O)c1ccc(NS(=O)(=O)c2ccc3c(c2)OCCO3)cc1)N(C)C (stereo unspecified)	-9	4.4	-2	-3	-8.0	0.1	-2%	3	4	0.4
O=C(OCC(=O)N1CCN(S(=O)(=O)c2ccc(Cl)cc2)CC1)c1cccc(OC(F)F)c1	-2	-47	-7	2	7.7	0.3	4%	-3	-12	1.3
CCOC(=O)c1c(-c2ccc(C)cc2)csc1NC(=O)/C(C#N)=C/c1ccc(O)c(OC)c1	-9	-3.2	-10	.	-13	.	-1%	11	11	3.5
C=CCn1c(SCC(=O)O)nnc1-c1cccs1	-7	.	2	-7	-4.5	-0.1	3%	.	.	.
CNC(=O)c1c(NC(=O)c2nc3ccccc3s2)sc2c1CCC2	42	.	8	8	-6.8	-0.6	7%	.	.	.
COC(=O)c1ccsc1NC(=O)C1COc2ccccc2O1 (stereo unspecified)	7	-5.2	-9	5	4.1	0.0	10%	-32*	-32*	0.7*
O=C(c1cc2ccccc2oc1=O)N1CCSC1c1ccco1 (stereo unspecified)	-12	.	-2	-6	-1.5	1.2	6%	.	.	.
Cc1ccccc1NC1=NC(=S)N(CC(N)=O)C12CCOC(C)(C)C2 (stereo unspecified)	7	0.6	-4	2	-1.5	0.2	.	-2	13	-0.8
COc1cc(C(C)=O)ccc1COc1ccc(C(=O)O)cc1OC	-7	3.5	10	-13	-3.3	0.7	-10%	6	-6	-0.9
O=C1NC2(CCCc3ccccc32)C(=O)N1Cc1nnc(-c2ccccc2Br)o1 (stereo unspecified)	0	.	-8	0	-4.2	-0.5	-1%	.	.	.
O=C(C1CC1)N1N=C(c2ccc(Br)cc2)CC1(O)C(F)(F)F (stereo unspecified)	3	-0.6	-8	-4	-4.5	0.9	-12%	7	-21	-2.1
CN(C)c1cc[n+](CC(=O)Nc2ccccc2C(F)(F)F)cc1	-12	-1.5	9	-5	0.8	-0.2	.	7	6	-0.6
COc1ccc(Cc2nc3ccc(C(=O)NCC4CCOCC4)cc3o2)cc1OC	15	1.3	4	-1	?	0.4	-8%	.	.	.
C=CCN(CC=C)C(=O)c1ccc(OC2CCN(S(=O)(=O)N(C)C)CC2)cc1	1	-0.6	48	7	-0.6	-0.4	-3%	-1	-13	-3.8
O=C(CC1SC(N2CCCCC2)=NC1=O)Nc1ccc(C(=O)Nc2ccccc2)cc1 (stereo unspecified)	-3	-0.1	10	6	-0.7	-1.7	-5%	-7	-8	-0.2
O=C1CCCCN1CCC(=O)N1CCCC(N2CCN(c3cccc(Cl)c3)CC2)C1 (stereo unspecified)	12	-0.4	0	-3	-3.7	-0.4	-4%	1	2	1.6
O=C(NCCCNC(=O)c1ccccn1)c1ccc(Cl)cc1	0	5.2	1	-3	1.4	1.0	.	4	6	-0.3
COc1ccccc1-n1c(SC)nc2c(sc(=S)n2-c2ccccc2)c1=O	-8	-4.4	-3	.	-1.0	.	.	14	16	-0.6
CC(=O)Nc1ccc(N2C(=O)CSC2c2cccc([N+](=O)[O-])c2)cc1 (stereo unspecified)	6	-0.1	-2	-5	?	0.6	-10%	16	10	-8.8
CCCCN(CC)CCNC(=O)C1CCCN(S(=O)(=O)c2cccc3nsnc23)C1 (stereo unspecified)	34	3.8	2	-7	1.4	-0.1	.	0	-5	-3.5
N#Cc1ccc(NC(=O)CN2CCN(c3ccccn3)CC2)cc1	-10	-24	7	1	2.1	-0.4	-8%	8	5	-0.1
COc1ccccc1N(CC(=O)N/N=C(\C)c1ccccc1O)S(=O)(=O)c1ccc(C)cc1	66*	-11	-4	14	1.7	1.5	-5%	-3	-3	1.2
CCOc1ccccc1C(=O)Nc1ccc(C(=O)c2ccccc2)cc1	7	5.0	8	8	2.8	-1.4	.	-2	2	-0.6
CCn1c(SCC(=O)c2cc(C)n(-c3ccc(C(=O)OC)cc3)c2C)nnc1-c1cccnc1	-1	.	-24	-6	-3.0	-0.5	7%	.	.	.
Cc1ccc(C)c(NC(=S)NNC(=O)c2csc3c2CCCC3)c1	12	.	-1	.	2.1	.	13%	.	.	.
CCOCC(=O)Nc1ccc([N+](=O)[O-])cc1Cl	-3	-1.5	14	-1	-2.0	0.7	-6%	21	16	1.3
Cn1c(/C=C/c2ccccc2[N+](=O)[O-])nc2ccccc2c1=O	9	2.5	0	6	-16	-0.1	.	5	-2	5.8
CCOc1ccc(Br)cc1S(=O)(=O)N1CC(C)OC(C)C1 (stereo unspecified)	3	.	-4	-4	1.4	0.3	2%	.	.	.
O=C(COC(=O)c1ccc(CSc2ccc(Cl)cc2)cc1)Nc1ccccc1	-17	-3.4	-4	8	-0.6	-1.6	.	13	5	3.2
CC1CCCN(CCCNC(=O)c2ccc(N3CCCC3=O)cc2)C1 (stereo unspecified)	-17	0.4	-4	-9	0.4	0.3	-4%	5	6	-0.2
COC(=O)CCCNS(=O)(=O)c1ccc2ccccc2c1	.	.	23	0	.	0.6	27%	.	.	.
COC(=O)c1ccccc1NC(=O)Cn1cnc2c1c(=O)n(C)c(=O)n2C	0	0.4	-2	-5	3.2	0.2	.	13	14	6.0
C=CCc1cccc(/C=N/n2c(C)nnc2C)c1O	-9	.	-16	-2	-3.7	-0.3	0%	.	.	.
COc1cc(/C=C(\C#N)c2nc3c(s2)CC(C)CC3)ccc1O (stereo unspecified)	-7	.	44	0	14	0.2	1%	.	.	.
Cc1cccc(OCC(=O)NCCCNC(=O)c2cnccn2)c1	4	2.2	17	-1	-4.1	0.9	.	4	3	0.1
O=C1CCC(C(=O)N(Cc2cccs2)C2(C(=O)NC3CCCCC3)CCCCC2)N1 (stereo unspecified)	-10	-1.5	-3	1	-2.9	1.9	-7%	6	3	0.4
CCOC(=O)CN(C#N)c1nc(C)cc(C)n1	-13	.	-9	0	2.5	-0.7	1%	.	.	.
CC1=NNC(=O)C1CCC(=O)N/N=C(/C)c1ccc([N+](=O)[O-])cc1 (stereo unspecified)	-11	-10	37	-2	?	-0.1	?	-6	-7	-0.4
CC1(C)Cc2cccc(OCC(=O)OCC(=O)Nc3ccccc3)c2O1	4	-6.0	-3	-3	2.0	0.6	-8%	0	2	-2.6

Only part of the results is shown. The share of hits here may be higher or lower than overall.
